Screening data deposited in PubChem BioAssay by several laboratories.
Calb FLC: C. albicans growth modulation with fluconazole; C. albicans CaCi-2 (fluconazole-resistant clinical isolate) + fluconazole, Alamar Blue growth, 48 h; growth inhibition, % (test concentration not listed); 300,000 tested, 0.57% active;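 active = most replicates above 75%; inconclusive = exactly half above 75%; inactive = most below 75%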;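 also: all wells also contain fluconazole at 8 µg/ml as a sub-toxic cotreatment; 0% = median of DMSO wells and 100% = median of geldanamycin control wells; wells of about 8 µL received 7.5 nL stock; the first replicate is given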
RanGTP-Imp inh: inhibitors of RanGTP-importin-beta interaction, primary screen, biochemical, FRET, CFP-Ran, YFP-importin-beta, homogeneous | cell-free CFP-Ran/YFP-importin-beta FRET ratio | inhibition, % (concentration not given with the values) | 300,000 tested, 1.1% active | AID 2216;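 active = most replicates above 15%; inconclusive = exactly half above 15%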;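 also: 0% = DMSO wells and 100% = Ran loaded with GDP instead of GTP; wells of about 40 µL received 100 nL stock; the first replicate is given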
ALR H2O2 inh: human ALR oxidase inhibition via reduced H2O2. 290,000 tested, 3.8% active. purified ALR, DTT oxidation, H2O2 HRP-luminol luminescence. P55789. inhibition, % (concentration not given with the values). AID 485317;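 active = mean and each replicate at 75% or more; inconclusive = only one of the two met; inactive = neither met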;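 also: stock transfer was 7.5 nL into about 7.5 µL; 0% = neutral wells and 100% = wells with inactivated enzyme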
Target sequence (P55789 whole entry, looked up): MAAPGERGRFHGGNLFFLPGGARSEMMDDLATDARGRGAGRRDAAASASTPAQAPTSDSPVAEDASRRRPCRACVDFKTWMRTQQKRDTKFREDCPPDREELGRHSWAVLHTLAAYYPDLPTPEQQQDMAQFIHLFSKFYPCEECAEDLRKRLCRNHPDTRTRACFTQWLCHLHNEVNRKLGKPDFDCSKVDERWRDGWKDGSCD
Beta2AR agonist: human beta-2 adrenergic receptor agonism by FAP; P07550; AID 504454; Am2.2-beta2AR cells, FAP receptor internalization, flow cytometry; reference of the scale not given here; 340,000 tested, 0.43% active; response, % (no concentration beside the values);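 active = response above a set limit, near 3 SD of response in nonfluorescent compounds, cut at about 42% in these data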;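 also: stock transfer was 100 nL into about 11 µL; a reference agonist was the positive control; negative values mostly stem from fluorescent compounds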
Target sequence (P07550 whole entry, looked up): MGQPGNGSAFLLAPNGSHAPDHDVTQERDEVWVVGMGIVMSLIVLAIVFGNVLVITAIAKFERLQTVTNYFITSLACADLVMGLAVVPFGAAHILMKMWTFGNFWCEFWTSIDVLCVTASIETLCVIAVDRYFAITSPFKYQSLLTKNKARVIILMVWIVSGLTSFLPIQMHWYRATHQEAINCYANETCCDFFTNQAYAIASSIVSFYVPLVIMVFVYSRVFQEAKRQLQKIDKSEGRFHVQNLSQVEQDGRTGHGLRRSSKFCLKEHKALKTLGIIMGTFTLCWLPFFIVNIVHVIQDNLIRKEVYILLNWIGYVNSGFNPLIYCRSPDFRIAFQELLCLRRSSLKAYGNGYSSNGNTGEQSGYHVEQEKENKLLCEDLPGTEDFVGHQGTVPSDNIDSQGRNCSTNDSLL
LANA-H2B inh: blocks KSHV LANA binding to histone H2A/H2B; cell-free LANA-H2A/H2B peptide, fluorescence polarization; inhibition, % (no concentration beside the values); 320,000 tested, 0.6% active; in the data active = inhibition mostly above about 10%, no sharp cut-off; inactive = mostly below about 6.7%;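 also: stock transfer was 7.5 nL into about 10 µL; 0% = median of vehicle wells and 100% = median of positive control wells; one replicate is shown; the record names a cut of 25% in any replicate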
HNF4A DNA FP: change in binding of human HNF4 alpha to DNA. P41235. HNF4a-FITC DNA binding, fluorescence polarization, 1 h. activity change, % at 10 µM. 360,000 tested, 0.3% active. AID 1224865; in the data active = activity change above about 30%, passing the limit was not always enough;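 also: controls were the assay level and a saturating level of protein; the project sought stronger binding though the title names inhibitors; some compounds called inactive have numbers as strong as hits; positive values seem to mean higher polarization but the record does not say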
Target sequence (P41235 whole entry, looked up): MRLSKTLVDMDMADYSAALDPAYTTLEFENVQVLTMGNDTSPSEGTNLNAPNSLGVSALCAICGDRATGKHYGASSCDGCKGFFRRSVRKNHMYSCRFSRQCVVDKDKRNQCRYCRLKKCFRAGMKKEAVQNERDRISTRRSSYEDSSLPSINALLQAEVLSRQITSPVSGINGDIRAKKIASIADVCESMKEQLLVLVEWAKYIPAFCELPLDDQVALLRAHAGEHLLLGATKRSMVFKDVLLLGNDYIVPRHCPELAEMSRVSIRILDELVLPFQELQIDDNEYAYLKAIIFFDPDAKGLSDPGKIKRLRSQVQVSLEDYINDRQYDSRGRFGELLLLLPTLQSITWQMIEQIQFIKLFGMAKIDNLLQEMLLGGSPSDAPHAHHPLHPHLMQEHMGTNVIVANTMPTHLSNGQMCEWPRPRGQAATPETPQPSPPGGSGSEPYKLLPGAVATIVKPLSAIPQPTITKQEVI
Vif A3G: HIV-1 Vif–A3G interaction blockers – biochemical, TR-FRET, GST-Vif 1-94, biotin-A3G peptide, dose response retest, primary screen (AID 1117319); TR-FRET GST-Vif / biotin-A3G peptide binding; higher % means a stronger effect; test concentration not given here; strong numbers were not always called active; inhibition, %, or IC50 in µM where a hit was titrated; 260,000 tested, 0.57% active;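 active = above the screen mean plus three standard deviations and confirmed in dose response; inconclusive = results disagree or hit not tested in dose response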;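 also: Vif residues 1-94 fused to GST binding biotinylated APOBEC3G peptide 110-148; 0% = full assay without inhibitor and 100% = GST in place of GST-Vif; retest series ran down from 100 µM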
* hit, by the source's call; ? = inconclusive; / = not tested or not shown.

SMILES | Calb FLC | RanGTP-Imp inh | ALR H2O2 inh | Beta2AR agonist | LANA-H2B inh | HNF4A DNA FP | Vif A3G
COc1ccc(CN(C(=O)c2ccc(-c3ccccc3)[nH]2)C(C(=O)NCC2CCCO2)c2ccc(C)o2)cc1 (stereo not given) | 4.3 | 1.2 | -27.7 | 20.9 | -3.1 | -2.8 | 20.7%
Cc1cc(N2C(=O)C3CC=CCC3C2=O)no1 (stereo not given) | -3.9 | ? | / | 3.4 | -0.9 | 0.6 | 5.0%
CC(C)NC(=O)C1CC=CCC1C(=O)O (stereo not given) | 1.8 | 25.4* | / | -5.0 | 1.6 | 1.2 | -6.8%
CCN(CC)S(=O)(=O)c1ccc(N/N=C(\C)c2ccncc2)c([N+](=O)[O-])c1 | -8.5 | -2.5 | -0.2 | 5.7 | 2.5 | 0.5 | /
Cc1ccc(S(=O)(=O)NCC(=O)N(CC(=O)NCC2CCCO2)Cc2ccco2)cc1 (stereo not given) | 15.0 | -1.7 | 0.7 | 3.4 | 1.3 | 0.3 | /
NS(=O)(=O)c1cc2c(cc1Cl)NC(c1ccccc1OCC(=O)O)NS2(=O)=O (stereo not given) | -0.8 | 3.2 | 1.3 | -6.1 | -6.0 | 0.8 | /
Cc1cccc(N2CCN(C(=O)c3ccc(NS(=O)(=O)c4ccc5[nH]c(=O)[nH]c5c4)cc3)CC2)c1C | 15.3 | 1.9 | -0.9 | 9.8 | -3.7 | -2.3 | /
O=C1OCc2ccc(NC(=O)C3CCCCC3)cc21 | 1.4 | -0.4 | 4.6 | -7.7 | 1.6 | 0.8 | 29.7%
C=CCN(c1ccccc1)S(=O)(=O)c1cccc(C(=O)N2CC(C)CC(C)C2)c1 (stereo not given) | -3.8 | ? | -12.2 | -5.9 | 0.9 | 7.5 | /
Cc1ccc(CCc2nnc(SCC(=O)Nc3ccccc3Cl)n2-c2ccccc2)o1 | -2.9 | 0.2 | / | 0.7 | 3.4 | -2.0 | /
O=C(Oc1cc(=O)n2ccccc2n1)c1ccccc1 | 12.4 | 5.4 | 22.4 | -1.3 | / | -2.9 | -4.1%
O=C(NNC(=S)Nc1ccccc1Cl)c1ccccc1Cl | -1.5 | 1.1 | 89.5* | 3.0 | 6.5 | -2.1 | /
CC(C)NC(=O)CSc1nc(Cc2ccccc2)nc2ccccc12 | 13.6 | -1.3 | / | -5.3 | 1.5 | -3.1 | /
COC(=O)c1[nH]c2cc(OC)ccc2c1NC(=O)CN1CCC(C(N)=O)(N2CCCCC2)CC1 | 15.8 | -2.1 | 2.3 | -20.3 | -0.4 | 0.0 | 20.0%
Cc1[nH]nc(-c2ccc(OCc3cnn(-c4ccccc4)c3)cc2O)c1Oc1ccc(F)cc1 | 0.4 | 6.1 | -3.3 | -1.9 | -4.9 | 1.8 | 0.5%
CC1C(O)=C(c2nc3ccccc3[nH]2)C(=N)N1c1ccccc1 (stereo not given) | -4.1 | 1.8 | ? | -11.3 | -0.3 | 2.5 | -1.1%
C/C(=N\Nc1cc(Cl)nc(C)n1)c1ccc(Cl)c(Cl)c1 | -2.8 | 9.1 | -3.7 | -4.9 | -0.7 | 1.4 | 2.6%
O=C(CCC(=O)N1CCSc2ccccc21)NCc1cccc(Br)c1 | 10.8 | ? | -6.5 | -13.6 | -3.2 | -2.7 | 1.1%
Cn1ncc(C#N)c1NC(=O)C1CC(c2ccc(Cl)cc2)=NO1 (stereo not given) | 1.0 | -0.1 | 2.0 | -5.5 | -2.4 | 2.2 | -0.8%
CC(OC(=O)c1ccc([N+](=O)[O-])s1)C(=O)NC1CCCCC1C (stereo not given) | / | / | / | 3.7 | -6.9 | 2.3 | 12.7%
CC1=CC(C)[C@H](/C=N/n2c(=O)[nH]c3c([nH]c4ccc(Br)cc43)c2=O)C(C)C1 (stereo not given in full) | -7.2 | -55.0 | 8.7 | 6.2 | 5.0 | -7.6 | 0.3%
COc1ccc(NC(=O)CCc2ccccc2)cc1NC(=O)c1ccco1 | 23.2 | 3.5 | -16.6 | -12.9 | 28.2* | 1.8 | 17.8%
O=C(CC1SC(=O)N(c2ccccc2)C1=O)Nc1ccc(Br)cc1 (stereo not given) | -7.4 | -3.4 | 21.3 | 5.1 | -3.1 | 10.2 | 1.3%
Cc1oc(-c2cccs2)nc1CN1CC[C@@](O)(c2ccccc2)[C@H]2CCCC[C@@H]21 | ? | 2.6 | -4.3 | 2.3 | -3.3 | -4.2 | -2.1%
CCOC(=O)C1C(=O)NC(c2ccccc2)=NC1c1ccc(C(C)C)cc1 (stereo not given) | 3.8 | 0.5 | 1.6 | -9.0 | -1.8 | 2.5 | -6.7%

(list continues)
SMILES | Calb FLC | RanGTP-Imp inh | ALR H2O2 inh | Beta2AR agonist | LANA-H2B inh | HNF4A DNA FP | Vif A3G
CN1C(=S)SC(C)(C)C1(C)NO (stereo not given) | -4.1 | -0.5 | -2.4 | 5.2 | -2.7 | 0.2 | 0.5%
O=C(CNc1ccccc1OC(F)F)N1CCc2ccccc21 | 0.6 | 1.9 | -15.6 | -10.1 | 2.1 | -1.1 | -3.4%
O=C(Nn1c(Cc2cccs2)nc2ccccc2c1=O)c1cccs1 | 39.2 | 7.0 | -1.3 | 6.1 | -6.3 | 3.8 | 5.2%
CC(C)(C)S(=O)(=O)/C(C#N)=N/Nc1ccc(Cl)cc1 | 48.2 | -0.1 | 98.8* | 8.1 | -0.7 | 0.8 | -11.2%
CCOC(=O)C1=C(CSc2nnnn2C)N(C)C(=O)NC1c1ccccc1 (stereo not given) | 0.1 | 0.3 | / | -3.0 | -3.1 | -1.7 | 11.2%
COc1ccc(S(=O)(=O)NC(C)C(=O)NCc2ccccn2)cc1OC (stereo not given) | 7.6 | -0.8 | 2.2 | -0.5 | -2.1 | 2.1 | /
CCOC(=O)Cc1n[nH]c(=O)c2ccccc12 | -15.9 | 3.4 | -10.7 | -0.1 | 7.2 | 4.0 | -4.3%
CCc1nc(C)cn1S(=O)(=O)c1cc(C)c(OC)cc1C | -9.4 | -1.7 | / | 4.1 | 1.6 | -3.2 | -1.0%
O=C(NC1CCCc2ccccc21)C1CCN(C(=O)c2sccc2-n2cccc2)CC1 (stereo not given) | 0.8 | 1.0 | -29.5 | 6.2 | -1.9 | -1.7 | ?
CC(=O)NC(=S)Nc1ccccc1C(=O)NC1CCCCC1 | ? | -0.7 | -7.1 | -8.0 | -2.2 | -1.6 | -2.5%
NNC(=O)c1csc(Cc2c(Cl)sc3ccc(Cl)cc23)n1 | -0.7 | -1.2 | 21.7 | 1.0 | -2.8 | 3.1 | /
COC(=O)c1c(NC(=S)NN2CCN(C)CC2)sc2c1CCC(C)C2 (stereo not given) | -15.8 | 3.3 | 35.1 | 28.9 | -2.9 | 1.1 | -1.8%
Cc1ccc(NC2c3ncccc3C(=O)N2C2CCCCC2)cc1C (stereo not given) | 18.4 | 7.9 | 92.5* | -6.8 | -1.7 | 0.8 | 22.2%
Cc1cccc(N2CCN(C(=O)c3ccc4[nH]c(C)c(C)c4c3)CC2)c1C | / | / | -9.5 | 2.3 | 3.6 | -3.1 | -3.6%
CCOC(=O)CN1C(=O)C(Sc2n[nH]c(-c3ccc(C)cc3)n2)CCc2ccccc21 (stereo not given) | 1.0 | ? | -5.3 | -1.9 | -0.7 | 2.8 | -1.6%
CCc1c(C)sc(NC(=O)OC)c1C(=O)N1CCCCC1 | 2.2 | -6.6 | 22.1 | 2.1 | 3.7 | -2.1 | 42.7µM*
COc1ccc(OCCc2nnc(N)s2)cc1 | -5.3 | -4.2 | / | 2.7 | 1.7 | 0.3 | -3.8%
CC(C)CN(CCNC(=O)CC1Oc2ccccc2NC1=O)CC(C)C (stereo not given) | -4.0 | 5.8 | ? | 0.4 | -0.6 | 3.9 | -3.4%
O=C(COC(=O)CNC(=O)C1CCCCC1)Nc1ccccc1OC(F)F | / | / | -1.0 | -1.9 | -6.0 | -5.2 | /
CCCCn1c(N)c(N(CC(C)C)C(=O)CSc2ccccc2C)c(=O)[nH]c1=O | 1.6 | -3.8 | / | -2.9 | / | -0.7 | 5.4%
CC(OC(=O)CCCCCN=C1NS(=O)(=O)c2ccccc21)C(=O)Nc1cc(Cl)cc(Cl)c1 (stereo not given) | 4.5 | -2.2 | 2.2 | 11.7 | 9.1 | 0.1 | 8.8%
O=C(NCCN1CCOCC1)c1ccc(/C=C2\Sc3ccccc3N(Cc3ccc(F)cc3)C2=O)cc1 | 16.0 | 6.0 | -13.5 | 16.2 | -3.9 | 4.0 | /
CCN(c1ccccc1)S(=O)(=O)c1ccc2[nH]c(=O)[nH]c2c1 | 1.3 | 1.8 | -6.5 | -1.7 | -3.3 | 4.3 | 29.8%
COCCCn1c(SCC(=O)Nc2oc(C)c3c(C)n[nH]c(=O)c23)nc2sc3c(c2c1=O)CCC3 | 1.2 | -0.2 | -9.9 | -0.6 | -3.5 | 3.3 | -3.1%
O=C(COC(=O)c1cc(-c2cccs2)nn1-c1ccccc1)Nc1ccc(Cl)c([N+](=O)[O-])c1 | -21.7 | -3.2 | 1.1 | 2.9 | -1.7 | -5.2 | /

Next section
SMILES | Calb FLC | RanGTP-Imp inh | ALR H2O2 inh | Beta2AR agonist | LANA-H2B inh | HNF4A DNA FP | Vif A3G
CC(C)(C)OCC(NC(=O)C(CC(N)=O)NC(=O)OC(C)(C)C)C(=O)OC(C)(C)C (stereo not given) | ? | 1.6 | -2.7 | -0.2 | 0.5 | 1.5 | 16.3%
COc1cc(/C=N/Nc2nc(C)cc(C)n2)cc(OC)c1OC | -4.7 | 3.1 | -10.5 | -3.2 | 3.6 | -1.5 | /
C=CCn1c(SCC(=O)Nc2ccc(-c3nc4ccc(C)cc4s3)cc2)nnc1-c1ccccc1 | 10.1 | 4.4 | 0.0 | 1.5 | 159.1* | 2.0 | /
CC(C)(C)OC(=O)N1CCC(c2c(C(=O)NC3CC3)cnn2-c2ccccc2)CC1 | -2.4 | -0.4 | -3.5 | 1.7 | -1.1 | -4.0 | /
O=C(COC(=O)c1ccc(NS(=O)(=O)c2cccs2)cc1)NCC1CCCO1 (stereo not given) | 0.2 | 1.5 | -2.7 | 4.5 | -3.1 | -3.6 | -1.4%
O=C(O)CCC(=O)N1CCc2cc(S(=O)(=O)N3CCN(c4ccc(F)cc4)CC3)ccc21 | 4.3 | -0.3 | / | 4.0 | -1.8 | -4.0 | -0.9%
CCOC(=O)C(Cc1ccccc1)NC(=O)CCC(=O)c1ccc(OC)cc1 (stereo not given) | -2.1 | 0.8 | -2.7 | -2.8 | -0.1 | 3.2 | 6.7%
CCCCC1CC1C(=O)Nc1ncc2c(n1)CC(C)(C)CC2=O (stereo not given) | 4.3 | 4.9 | -5.2 | 10.5 | 4.5 | 2.8 | 4.1%
O=C(Nc1cc(S(=O)(=O)N2CCOCC2)ccc1N1CCCCC1)c1ccccc1 | / | / | -7.3 | 5.6 | -2.0 | -1.3 | /
O=C(CSc1nc2ccccc2c(=O)[nH]1)Nc1ccc(N2CCOCC2)c(Cl)c1 | -3.1 | -0.3 | 1.1 | 9.9 | -2.0 | 0.9 | /
CN(CC1COc2ccccc2O1)C(=O)Cn1cc(C(F)(F)F)ccc1=O (stereo not given) | / | / | -10.1 | -11.6 | 5.5 | -4.4 | /
COc1ccc(/C=C2\SC(=O)N(CC(=O)NCCCn3ccnc3)C2=O)cc1 | 7.5 | 2.6 | -4.9 | -5.2 | 1.1 | -0.2 | /
CC(=O)NCCc1nc2cc(NC(=O)c3ccc([N+](=O)[O-])cc3)ccc2n1C | -7.4 | -1.7 | -19.4 | -5.8 | 0.4 | 2.8 | 1.3%
CN(Cc1ccc(F)cc1)C(=O)c1cc(S(=O)(=O)N2CCCCC2)ccc1N1CCOCC1 | / | / | / | -0.9 | / | 4.7 | -6.4%
CCN(c1ccccc1)S(=O)(=O)c1cc(NC(=O)Nc2ccccc2C#N)ccc1Cl | 27.6 | 9.6 | -1.0 | -18.5 | -7.3 | -2.5 | /
